# eIF4H inh = inhibitors of RNA binding by human eIF4H; Q15056; inhibition, % at 35 µM; eIF4H fluorescence polarization binding assay; AID 2012; actives 0.94% (n = 290,000);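 active means 50% or more with normal probe brightness, or confirmed in later tests; about a fifth of its hits are not listed in these tables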;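 further: calls also rest on retests at 20 µM and on dose response follow-up; 0% = protein and probe with vehicle and 100% = probe without protein; strong numbers were not always called active; many hits fall short of the cut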
# PABP polyA inh = PABP-poly(A) binding inhibition. PABP-poly(A) RNA binding, fluorescence polarization. actives 1% (n = 290,000). inhibition, % at 35 µM. AID 2014;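 active means 50% or more with normal probe brightness, or confirmed in later tests; about a fifth of its hits are not listed in these tables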;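 further: calls also rest on retests at 20 µM and on dose response follow-up; controls were probe without protein and protein plus probe with vehicle; some compounds called inactive have numbers as strong as hits; many hits fall short of the cut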
# Target sequence (P11940 whole entry, looked up): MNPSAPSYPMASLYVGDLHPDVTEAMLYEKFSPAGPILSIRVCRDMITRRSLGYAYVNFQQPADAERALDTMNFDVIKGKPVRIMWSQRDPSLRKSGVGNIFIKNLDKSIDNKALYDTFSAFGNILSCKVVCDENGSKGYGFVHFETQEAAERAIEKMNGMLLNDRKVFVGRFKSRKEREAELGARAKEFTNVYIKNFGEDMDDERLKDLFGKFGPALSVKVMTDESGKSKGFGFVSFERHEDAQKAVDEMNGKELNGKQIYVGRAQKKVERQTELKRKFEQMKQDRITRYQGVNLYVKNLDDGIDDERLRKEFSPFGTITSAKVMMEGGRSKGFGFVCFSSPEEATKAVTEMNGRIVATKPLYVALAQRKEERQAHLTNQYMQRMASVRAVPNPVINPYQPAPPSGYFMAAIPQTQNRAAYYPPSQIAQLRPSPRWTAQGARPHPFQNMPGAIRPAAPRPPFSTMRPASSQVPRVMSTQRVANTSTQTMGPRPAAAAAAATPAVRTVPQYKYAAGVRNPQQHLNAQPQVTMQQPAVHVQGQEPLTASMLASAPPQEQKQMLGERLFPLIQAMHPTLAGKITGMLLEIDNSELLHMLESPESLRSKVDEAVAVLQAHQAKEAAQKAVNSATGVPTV
# UUG fidelity = yeast start codon fidelity modulation; S. cerevisiae UUG-firefly luciferase reporter, luminescence/redox ratio; activity score, % at 18.7 µM; actives 0.13% (n = 350,000);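 active means replicate mean at a twofold rise or more, about +100% in these data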;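 further: firefly luciferase made from a UUG start codon reports start codon fidelity; reporter light over untreated wells divided by growth signal over untreated wells; some hits fall short of that in this replicate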
# Env fusion inh = blocks HIV Env-driven cell-cell fusion; HeLa-JRFL Env/CEM21 cell fusion, luciferase; inhibition, % at 12.3 µM; actives 1.1% (n = 360,000); AID 651610;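 active means mean replicate inhibition score of at least 50 and every replicate individually at or above 50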;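 further: 0% = plate neutral controls and 100% = maraviroc near 300 nM; one replicate is shown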
# Rce1 inhib = inhibitors of yeast Ras-converting enzyme; Q03530; yeast membranes, quenched prenylated peptide cleavage fluorescence; calls only; actives 0.27% (n = 290,000); AID 2563;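 active means fall in fluorescence gain of 50% or more versus controls, with final raw signal at or below 3038400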;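 further: plate controls were neutral control wells for no effect and wells lacking membranes for full effect; tested at 10 µM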
# MT1-MMP act inh = inhibitors of human MT1-MMP activation; actives 0.061% (n = 360,000); HT1080 RFP-PRO-GFP cells, GFP/RFP ratio fluorescence, overnight; percent of plate control window, DMSO zero; GFP/RFP ratio change, % at 20 µM;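 active means GFP/RFP ratio change of at least 30% with cell ATP level not reduced by more than half and red fluorescence within 50% of control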; further: strong numbers were not always called active
#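 Read-out: GFP/RFP fluorescence ratio; Test system: RFP-PRO-GFP reporter HT1080 cells; Compound dosing: single-point 20 µM compound, 1% DMSO; Times: overnight compound exposure at 37 °C.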
# CSC inhib = blocks cancer stem cells. actives 1.1% (n = 300,000). cancer stem cell-like cells viability, luminescence. inhibition, % at 7.5 µM;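 active means mean at 75% or more and at least half the replicates too; tested in HMLE shEcad cells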;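 further: 0% = median of negative and 100% = median of positive control wells; the first replicate is given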
# MT1-MMP act inh RFP = second read-out of MT1-MMP act inh, no call of its own (marks repeat the call); RFP signal change, %; measured here: RFP expression control read;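 0 = vehicle wells; hits needed this value within 50% of zero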
# The depositor's hits bear a star; i = inactive; . = no result given; + = active, no number. Not a hit list; 2.9% or so of the library scored in one or more.
# Each structure is followed by: eIF4H inh	PABP polyA inh	UUG fidelity	Env fusion inh	Rce1 inhib	MT1-MMP act inh	MT1-MMP act inh RFP	CSC inhib
- O=C1CN(C(=O)c2ccco2)C(c2ccccc2)c2cc(Cl)ccc2N1 (stereo not given)
    3.3	-1.6	-8.1	.	i	-10.1	-11.7	-3.6
- CCc1c(C)nc(SCC(=O)NC2CCCC2)[nH]c1=O
    6.0	20.6	-11.2	-1.1	i	4.6	2.8	-10.0
- CCN(C(=O)COc1ccc2ccc(=O)oc2c1)C1CCCCC1
    .	.	4.0	.	.	-0.1	-0.3	-17.7
- CCn1c(=O)c(C(=O)NNC(=O)c2ccccc2F)c(O)c2ccccc21
    21.9	7.7	-3.7	-0.6	.	0.5	-2.3	13.1
- Cn1c2c(c(=O)n(C)c1=O)C(c1ccc(F)cc1)C(C#N)=C(N)O2 (stereo not given)
    22.6	1.7	-17.5	-9.7	i	-5.3	1.9	-5.2
- CCOC(=O)COc1ccc2c3c(c(=O)oc2c1C)CCC3
    3.1	2.5	11.5	-34.7	i	2.8	5.7	-4.0
- COc1ccc(-c2nc(NC(=O)C3CCN(c4nc5ccccc5o4)CC3)sc2C)cc1
    13.3	-7.7	-4.8	66.8*	i	-14.1	-22.9	49.4
- COc1ccc(CNC(=O)CCn2c(=O)[nH]c3ccccc3c2=O)cc1
    0.7	-0.4	.	-41.4	i	3.9	5.0	-3.8
- Cc1cc(C)nc(/N=C2\NC(=O)CC(C(=O)O)N2c2ccc(F)c(Cl)c2)n1 (stereo not given)
    6.1	4.6	.	.	i	.	.	-9.7
- Cc1nn(CC(=O)NCC2CCCO2)c(C)c1[N+](=O)[O-] (stereo not given)
    -11.1	7.5	.	9.9	i	2.4	7.1	-0.5
- O=C1C=C(c2cccc(Cl)c2O)C[C@@H](c2ccc(F)cc2)C1
    .	.	-17.0	.	.	-0.3	-3.5	14.6
- O=C(NCCCN1CCOCC1)c1sc2ccccc2c1Cl
    -8.3	-11.9	-13.0	-45.5	i	0.8	0.5	-9.9
- CC1(C)Cc2c(sc3nc(-c4cc5ccccc5o4)n(N)c(=O)c23)CO1
    -7.1	-1.6	-8.5	-75.7	i	6.4	-0.4	-7.3
- O=C(Nc1nccs1)c1ccc(Cl)c(S(=O)(=O)N2CCOCC2)c1
    2.8	-2.5	-6.3	.	i	1.3	-4.8	.
- CC(=O)c1c(C)[nH]c(C(=O)CSc2nnc(NC3CC3)s2)c1C
    .	.	-4.1	34.2	.	8.5	-9.4	.
- NS(=O)(=O)c1cccc(NS(=O)(=O)c2ccc(/C=C/C(=O)OCC(=O)c3ccc(Br)cc3)cc2)c1
    -9.8	-1.6	-17.9	16.0	i	1.6	1.8	24.5
- O=C(O)c1cn(-c2ccccc2)c(=O)c2ccccc12
    -8.6	-4.3	3.1	-29.5	i	-5.4	4.3	-10.9
- Cc1cc(C)nc(NS(=O)(=O)c2ccc(CC(C)C)cc2)c1
    -2.4	-7.6	-5.4	21.2	i	0.4	-5.7	-0.1
- COc1cc2[nH]c(C(=O)N3CCc4ccccc43)cc2c(OC)c1OC
    -12.6	-2.2	-4.3	-17.4	i	1.5	0.5	-3.1
- CNC(=O)NNC(=O)c1onc(-c2c(Cl)cccc2Cl)c1C(=O)OC
    -2.8	2.0	.	-3.7	i	0.3	5.6	-17.0
- Cc1cccc(-c2oc3ccc(-c4ccc5c(c4)OCO5)cc3c2/C=C/c2ccc(N)cc2)c1
    -6.8	5.7	-20.2	.	i	-1.7	0.9	5.7
- COc1cc(C)c(COc2ncnc3ccccc23)cc1OC
    -6.3	2.4	-16.1	3.5	i	-3.3	-10.8	12.0
- Cc1[nH]n2c(=O)cc(Cc3ccccc3)nc2c1C#N
    6.4	11.9	-10.1	.	i	-3.1	0.7	-8.1
- COc1cccc(CN=CC2=C(O)CC(C)(C)CC2=O)c1OC
    1.7	5.3	-24.5	.	i	4.2	2.0	-1.4
- CC(C)(CCl)C(=O)Nc1ccc(Sc2ccc(F)cc2)cc1
    -4.6	0.4	-15.0	-9.0	i	2.9	-1.0	16.0
- COc1ccccc1NC(=O)C(C)OC(=O)C1CC(=O)N(Cc2ccco2)C1 (stereo not given)
    .	.	-8.2	-18.6	.	9.2	8.2	.
- COc1ccccc1N(Cc1ccccc1)S(=O)(=O)c1cccc(C(=O)O)c1
    -1.6	-10.2	.	13.6	i	9.7	7.6	-12.9
- COc1ccc(NC(=S)NCc2cccnc2)cc1OC
    2.2	8.3	.	5.4	i	1.9	-0.7	-15.5
- CC(C)OC(=O)CSc1nnc2n1C(C)(C)Cc1ccccc1-2
    -5.9	-5.4	-6.9	-396.2	i	3.4	-1.6	-9.7
- CCCc1nnc(NC(=O)C2CCN(C(=O)C3CC(=O)N(c4ccc(C)cc4)C3)CC2)s1 (stereo not given)
    9.7	-8.9	-0.8	-12.3	.	2.2	-1.2	-11.7
- CSc1nc2sc3c(c2c(=O)n1CC(C)C)CC(C)(C)OC3
    3.9	-0.4	-14.9	-2.1	i	0.6	-8.0	75.2*
- O=C(Nc1cccc(C(F)(F)F)c1)c1cnc2n(c1=O)CCS2
    -11.3	-15.1	-6.5	-30.6	i	1.2	7.6	1.6
- CCn1c(Cc2ccccc2)nnc1SCC(=O)Nc1ccc(N2CCOCC2)c(Cl)c1
    -12.3	11.4	-12.4	.	i	-0.4	-1.9	10.8
- CCOC(=O)c1nn(-c2ccc(C)cc2)c(=O)cc1OCC(=O)Nc1ccc(OC)cc1
    .	.	-16.4	6.1	i	1.0	-3.8	8.6
- O=C(O)COc1ccccc1/C=N/NC(=O)CSc1nc2ccccc2c(=O)n1-c1ccc(Cl)cc1
    14.4	0.2	-11.8	-92.1	i	5.0	1.8	4.0
- COc1ccc(-c2cc(NC=O)c3ncc(-c4ccc(C(C)=O)cc4)n3c2)cc1OC
    .	.	-13.5	11.2	.	-5.0	-1.0	.
- Cc1ccc(C(=O)OCC(=O)NC(C)c2ccccc2)cc1C (stereo not given)
    .	.	-7.7	.	.	-1.1	1.8	12.6
- CC(=O)Nc1ccc(S[C@@H](CCN2CC[C@H](C(C)(C)C)CCC2=O)c2ccccc2)cc1
    .	.	-5.3	9.0	.	3.4	-2.0	-1.6
- CC(C)Cc1nnc(NC(=O)C2CC(=O)N(c3ccc4c(c3)OCCO4)C2)s1 (stereo not given)
    .	.	13.9	-2.5	.	-0.9	1.0	-12.1
- CSCCCNC(=S)Nc1ccc(N2CCOCC2)cc1
    -2.7	7.9	.	4.9	i	1.1	-1.1	-6.3
- COC(=O)c1ccc(NC(=O)COc2ccc(S(=O)(=O)N3CCCCC3)cc2)cc1
    -13.7	5.6	-9.1	6.3	i	-3.4	-4.5	.
- Cc1ccc(NS(=O)(=O)c2cc3c4c(c2)CC(=O)N4CCC3)cc1C
    .	.	20.4	-3.4	i	-2.6	-11.7	-9.2
- COc1cc(C2C(C(=O)c3cccs3)=C(O)C(=O)N2CCN2CCOCC2)cc(OC)c1OC (stereo not given)
    -0.9	5.0	-15.9	0.1	i	-3.6	1.3	-1.5
- CCCOc1ccc(N2C(=O)CC(N(CCc3ccc(OC)cc3)C(=O)c3cccc(F)c3)C2=O)cc1 (stereo not given)
    4.4	-4.3	-3.6	.	i	-2.0	-2.6	-0.7
- Cn1c(-c2ccccc2)cnc1NCc1cccc([N+](=O)[O-])c1
    13.7	-2.8	7.7	-3.8	i	-0.1	1.5	-8.1

# Molecules from the list above with a cyano group:
# Each structure is followed by: eIF4H inh	PABP polyA inh	UUG fidelity	Env fusion inh	Rce1 inhib	MT1-MMP act inh	MT1-MMP act inh RFP	CSC inhib
- Cn1c2c(c(=O)n(C)c1=O)C(c1ccc(F)cc1)C(C#N)=C(N)O2 (stereo not given)
    22.6	1.7	-17.5	-9.7	i	-5.3	1.9	-5.2
- Cc1[nH]n2c(=O)cc(Cc3ccccc3)nc2c1C#N
    6.4	11.9	-10.1	.	i	-3.1	0.7	-8.1

# Following part:
# Each structure is followed by: eIF4H inh	PABP polyA inh	UUG fidelity	Env fusion inh	Rce1 inhib	MT1-MMP act inh	MT1-MMP act inh RFP	CSC inhib
- Cc1cc(C(=O)NNC(=S)NC2CCCCC2)cs1
    2.0	-9.1	-11.9	-11.2	.	1.5	-4.8	-2.8
- CCOC(=O)N1CCC(N2Cc3cccc(C(=O)NCc4ccccc4OC)c3C2=O)CC1
    0.9	6.8	2.1	-69.4	i	-1.8	-4.8	-4.6
- COc1cc2c(cc1OC)CN(CCC(C)c1ccc(Cl)cc1)CC2 (stereo not given)
    .	.	15.2	32.6	i	-11.0	-3.5	6.9
- CC(=O)Nc1nc(C)c(C(C)(C)C)s1
    -1.7	1.9	-17.9	14.3	i	-2.3	-1.2	-5.9
- Cn1ncc([N+](=O)[O-])c1C(=O)Nc1ccc(Cl)cc1
    -1.7	-14.8	-11.7	1.1	i	1.1	-0.2	-2.8
- O=C1C=C(c2ccc3c(c2)OCO3)C[C@@H](c2ccc(F)cc2)C1
    .	.	-18.2	-11.0	.	4.5	2.1	44.1
- O=C(NNC(=O)c1ccccc1O)c1ccc(Cl)cc1
    -3.7	-2.5	-25.0	-121.4	i	9.5	4.5	12.1
- Cc1cc(=O)n(-c2ccc(O)cc2)[nH]1
    -2.2	-6.2	-14.1	.	i	-5.1	-3.1	19.8
- Cc1nc2nc(C)c(CCC(=O)NCCC3=CCCCC3)c(C)n2n1
    -3.9	-6.6	-19.8	-14.2	i	-1.3	1.0	-8.8
- COc1ccc(C2Nc3ccccc3C(=O)N2Cc2ccccc2)cc1COc1ccccn1 (stereo not given)
    4.4	0.7	-4.1	.	+	-11.7	-1.8	-3.5
- COc1ccc(Cl)cc1-c1nc(-c2ccncc2)no1
    -9.9	-3.7	-4.1	.	i	-3.6	2.4	-2.8
- CCC(=O)c1ccc(OCC(O)Cn2nc(C)cc2C)cc1 (stereo not given)
    -1.0	1.2	-10.9	1.7	i	-2.3	1.5	-20.8
- CN1CCN(CCCNC(=O)Nc2ccc([N+](=O)[O-])cc2)CC1
    0.4	-2.1	-4.5	6.4	i	-8.6	-2.4	6.3
- COc1ccc2ccccc2c1/C=N/NC(=O)c1cccc(C)c1
    .	.	-3.2	7.8	i	-0.5	0.8	-3.8
- Cc1cc(Br)ccc1OCC(=O)NNC(=O)CCc1ccccc1
    -1.3	-12.5	-14.2	28.9	i	-0.2	3.3	-1.6
- CC(NC(=O)COC(=O)c1nc(Cl)ccc1Cl)c1ccccc1 (stereo not given)
    .	.	1.0	-0.8	.	-3.9	3.3	-7.4
- COc1cccc(NC(=O)c2nn(C34CC5CC(CC(C5)C3)C4)cc2[N+](=O)[O-])c1
    -4.8	7.7	-13.9	.	i	-2.0	-9.3	-2.3
- O=C(c1cccc(F)c1)N1CCN(S(=O)(=O)c2ccc(C(F)(F)F)cc2)CC1
    -7.6	-14.6	-10.9	30.6	i	4.2	-5.1	20.9
- Cc1cc(C)cc(OC2CCCCC2NS(=O)(=O)c2ccccc2)c1 (stereo not given)
    1.1	-4.5	-1.8	28.2	i	-8.0	-5.3	-1.6
- O=C1NC(=S)SC1=C1CCCC1
    27.7	28.3	.	.	i	-5.4	11.1	-11.7
- O=C(c1ccc(Cn2cc(Cl)c([N+](=O)[O-])n2)cc1)N1CCN(Cc2ccccc2)CC1
    -6.4	-5.1	.	3.6	i	6.5	-9.1	14.7
- COCCn1nnnc1C(c1cc2cc(OC)c(OC)cc2[nH]c1=O)N1CCN(c2ccc(O)cc2)CC1 (stereo not given)
    6.0	2.3	-22.8	-2.0	i	-2.0	4.7	-3.2
- CCCS(=O)(=O)NC(=O)C1(C)CCCN(C(=O)c2cc(C)nn2C(C)(C)C)C1 (stereo not given)
    .	.	-1.7	1.1	.	-2.2	6.4	.
- CC(=O)NCCC(=O)NCC1(N(C)Cc2ccccc2)Cc2ccccc2C1
    -8.8	-6.2	1.8	-5.4	i	0.1	4.8	-0.2
